Mtb hypoxia rep: reduces hypoxia-regulated biosensor signal in M. tuberculosis. M. tuberculosis hypoxia-regulated fluorescent reporter, fluorescence. 300,000 compounds, 0.1% hits. fluorescence inhibition, % (test concentration not listed);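 active = 35 to 45% if threefold the growth effect, above 45% if 1.5-fold the growth effect; inactive = the rest, general growth blockers included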;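 note: wells of about 50 µL received 100 nL stock; 0% = vehicle wells and 100% = reference inhibitor wells; whole bacteria with a GFP reporter of the hypoxia response; strong numbers were not always called active; many hits fall short of the cut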
Sa RN4220 lethal: S. aureus RN4220 growth inhibition; 330,000 compounds, 0.33% hits; OD600, 16 h; inhibition, % (concentration not given with the values);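 active = z-score of -3 or lower and OD600 up to 0.18 on both plates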;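 note: plate controls were untreated cells for no effect and reference antibiotic for full effect; stock transfer was 100 nL into about 80 µL; one replicate is shown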
Sa ugtP lethal: growth inhibition of S. aureus ugtP deletion strain; S. aureus RN4220 ugtP deletion, OD600 growth, 16 h; some inactives read as strong as hits; growth inhibition, % (test concentration not listed); 330,000 compounds, 0.54% hits; AID 1259309;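 active = z-score under -3 and OD600 up to 0.15 on both plates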;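 note: plate controls were untreated wells for no effect and antibiotic for full effect; wells of about 80 µL received 100 nL stock; the first replicate is given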
BJeLR viability: BJeLR cell viability loss | BJeLR (HRASV12) viability, CellTiter-Glo ATP luminescence, 48 h; reference of the scale not given here | inhibition, % (test concentration not listed) | 300,000 compounds, 0.17% hits | AID 1554;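 active = replicate mean above 50%; inconclusive = above 50% but judged a plate artefact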;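 note: 50 nL library stock added to about 25 µL; numbers are from one replicate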
PrP 5UTR inh: suppresses PrP 5' UTR mRNA reporter expression | cell-based PrP 5' UTR mRNA reporter, plate reader | inhibition, % (no concentration beside the values) | 340,000 compounds, 0.35% hits;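 active = every replicate at 50% or more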;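 note: 0 = median of the neutral control wells; tested in H4 reporter cells; numbers are from one replicate; inactives centre near -14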
Bead autofluor: flagged as autofluorescent in microsphere protease counterscreen | compound autofluorescence counterscreen, microsphere flow cytometry; stronger effect = higher value | fluorescence intensity (test concentration not listed) | 360,000 compounds, 3.1% hits;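 active = at least 3 SD above the mean of all compounds, about 16000 in these data; inconclusive = too few beads counted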;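 note: 100 nL of 1 mM stock went into each well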
Mtb hypoxia rep growth: further read-out of Mtb hypoxia rep, marked with its call; growth inhibition, %; measured here: M. tuberculosis growth (absorbance);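 0% = vehicle and 100% = reference antibiotic; read after six days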
An asterisk follows results filed as active; ? = inconclusive; nt = no result given; & = joins results of further samples. Hits appear at their usual frequency. About 4% of those tested had a hit in this group.

SMILES | Mtb hypoxia rep | Mtb hypoxia rep growth | Sa RN4220 lethal | Sa ugtP lethal | BJeLR viability | PrP 5UTR inh | Bead autofluor
Cc1cccc(CSc2ncnc3nc[nH]c23)c1 | 8 | 7 | 6.2 | 8 | 6 | -26 | 5503
COC(=O)CNC(=O)c1cc(-c2ccncc2)nc2ccc(C)cc12 | 8 | 18 | 1.7 | 2 | -5 | -7 | 6035
Cc1cc(C)n(-c2cc(C(=O)O)cc(C(=O)O)c2)n1 | -7 | 3 | 8.4 | 8 | -8 | -53 | 4607
CCC(C)(C)NC(=O)C(c1ccc(O)cc1)N(C(=O)Cn1nnc2ccccc21)c1ccc(NC(C)=O)cc1 (centres undefined) | 0 | -9 | -2.7 | -2 | -4 | 4 | 5042
COc1ccc(-c2nn(-c3ccccc3C)cc2CNC(C)c2cn(C)nc2C)cc1F (centres undefined) | -7 | 5 | 1.9 | 10 | -2 | -11 | 4604
CC(=O)N1CCc2cc(S(=O)(=O)NC(CC(C)C)C(=O)Nc3cc(C(=O)O)ccc3C)ccc21 (centres undefined) | 4 | 3 | 7.7 | 8 | -12 | 10 | 2988
CC(C)n1nnnc1-c1cc(Cl)cc(Cl)c1 | 5 | 14 | 1.3 | -1 | 2 | -11 | 23056*
OC(COc1ccccc1)Cn1cc(Br)cn1 (centres undefined) | nt | nt | 3.7 | 1 | 2 | -25 | 4040
CC(C)c1ccc(NC(=O)C2C3C=CC(CC3)C2C(=O)O)cc1 (centres undefined) | 1 | 1 | 3.6 | 6 | 7 | -12 | 4435
COc1cccc(-n2c(SCC(=O)N3CCc4ccccc43)nnc2-c2c[nH]c3ccccc23)c1 | -7 | -3 | -1.8 | -14 | -13 | 6 | 5534
CC(C)OC(=O)CCCN1C(=O)c2ccc(N)cc2C1=O | nt | nt | 0.8 | 9 | -2 | -18 | 3674
O=C(NCc1cccc(Cl)c1)c1cccc(OC2CCN(C(=O)C3CC3)CC2)c1 | -1 | 4 | -0.6 | 9 | -6 | -17 | 5573
COc1ccc(NC(=O)C2CCN(C(=O)Nc3ccccc3)CC2)cc1S(=O)(=O)N(C)C | 4 | -6 | 2.9 | 2 | nt | -14 | 4263
Cc1nn(-c2ccccc2)c2c1C1(C(=O)N(C)c3ccccc31)N(c1ccccc1)C(=O)N2 (centres undefined) | nt | nt | 0.7 | -7 | -3 | -20 | 5391
CC(=O)c1cccc(NC(=O)C(C)N2CCc3ccccc3C2)c1 (centres undefined) | 15 | 10 | 5.5 | 6 | -2 | 4 | 6166
CCn1nnnc1NCc1c(OC)ccc2ccccc12 | 12 | 3 | 10 | 5 | -8 | -18 | 4406
Cc1csc(NC(=O)CN(C)S(=O)(=O)c2cccc3cccnc23)n1 | nt | nt | 1.7 | 7 | -2 | -16 | 5745
Cc1cc(C)cc(C(=O)OCC(=O)NCc2ccco2)c1 | 11 | 8 | -7.3 | 0 | nt | -23 | 3673
NC1=NC(=O)/C(=C/c2c(OS(=O)(=O)c3ccc(Cl)cc3)ccc3ccccc23)S1 | nt | nt | nt | nt | 4 | 3 | 2216
O=C(COC(=O)COc1ccccc1[N+](=O)[O-])NC1CCCCC1 | 10 | -3 | 2.5 | 0 | nt | -2 | 8164
CCN(CC(=O)NC1CCS(=O)(=O)C1)C(=O)c1ccc(OC)c([N+](=O)[O-])c1 (centres undefined) | 0 | 2 | 2.5 | -2 | nt | -21 | 4013
CC(=O)c1cn(Cc2ccccc2F)c2ccccc12 | 0 | 5 | 2.9 | -3 | 7 | 10 | 2918
COc1ccccc1Nc1nc(-c2ccccc2)nc2ccccc12 | -1 | -1 | -12 | 22 | 11 | -10 | 2604
CCOC(=O)c1cnc2ccc(C)cn2c1=O | -7 | -2 | 2.5 | 3 | 4 | -24 | 4514
O=C1CN=C(Nc2ccccc2Cl)N1Cc1ccc2c(c1)OCO2 | -9 | -6 | -2.9 | -2 | -5 | 11 | 6371
CCN1C(=O)N(CC)C2NC(=S)NC21 (centres undefined) | nt | nt | 0.6 | 5 | 11 | -32 | 2439
Cc1cc(C(=O)C(C)OC(=O)c2cnccn2)c(C)n1-c1ccccc1 (centres undefined) | 7 | 4 | 5.8 | 4 | 11 | -14 | 5442
CCC1(CCC(C)C)C(=O)NC(=S)NC1=O | nt | nt | 8.1 | -6 | nt | 7 | 3100
COc1cccc(CNC(=O)CSCC(=O)Nc2ccc(C)cc2)c1 | -3 | 8 | 7.6 | 0 | 3 | -4 | nt
Cc1nc(SCCCSc2n[nH]c(C)n2)n[nH]1 | 4 | 9 | 0.1 | 3 | 7 | -4 | 3419
COc1cccc(NC(=O)C(NCC(C)(C)CN(C)C)c2ccccc2)c1 (centres undefined) | nt | nt | -0.1 | 0 | -3 | -10 | 3377
CCCCn1nc2cc(C(=O)NCc3ccco3)ccc2c1OCC | 16 | 6 | -14 | -2 | 7 | -6 | 2911
CS(=O)(=O)N1N=C(c2cccs2)CC1c1ccccc1F (centres undefined) | 10 | 3 | 5.7 | -2 | 4 | -16 | 4870
CC1(C)Cc2c(sc3c2c(=N)n(Cc2ccco2)c(=O)n3CC(=O)Nc2cccc(Cl)c2)CO1 | nt | nt | -11 | -25 | 1 | 9 | 3348
CCn1ccc(C(=O)NCCCN2CCCC2=O)n1 | 2 | 1 | 0.4 | 3 | 0 | -21 | 6223
O=C(COc1ccc(F)cc1F)Nc1cccnc1 | 5 | -5 | 3.8 | 1 | -3 | -23 | 5425
CCOc1ccc(S(=O)(=O)NCCCN2CCCC2=O)cc1 | 4 | 4 | 3.1 | 5 | -1 | -11 | 5108
COc1ccc(C(=O)NCCc2ccccc2)cc1OC | -8 | 11 | -0.2 | 6 | 2 | -48 | 3910
O=C(NC1CCC(C(=O)O)CC1)OCc1ccccc1 (centres undefined) | -11 | -3 | 3.0&-2.6 | -3&-1 | -4&3 | -8&-33 | 3389&2767&3513
CCOC(=O)c1c(C)n(C)c2cc(-c3cccc(C(F)(F)F)c3)c(O)cc12 | -1 | 6 | 0.4 | -2 | -7 | -12 | 1960
CSCCC(NC(=O)/C(=C\c1ccc(Cl)cc1)NC(=O)c1ccccc1)C(=O)O (centres undefined) | 3 | -2 | 6.4 | 6 | -6 | -48 | 4568
O=C(c1ccc(S(=O)(=O)N2CCOCC2)cc1)N(c1ccccc1)C1C=CS(=O)(=O)C1 (centres undefined) | 1 | -5 | 2.6 | 11 | 12 | -12 | 7627
CC(=O)N(Cc1ccc(F)cc1)Cc1nc2ccccc2c(=O)[nH]1 | -4 | 0 | 4.9 | 4 | 2 | -23 | 4403
O=C(Nc1cccc(S(=O)(=O)N2CCCCC2)c1)C1CCC1 | -2 | 10 | -0.8 | -6 | 11 | -11 | ?
COc1cccc(N/N=C(\C#N)S(=O)(=O)C(C)(C)C)c1 | nt | nt | nt | nt | 0 | -5 | 3137
COc1ccccc1N1CC(C(=O)Nc2ccc(N3CCOCC3)cc2)CC1=O (centres undefined) | 7 | 2 | 1.9 | 7 | nt | -13 | nt
COc1ccc(/C=N/NC(=O)c2nn(-c3ccccc3)c(=O)c3c(N)scc23)cc1 | nt | nt | nt | nt | 4 | -2 | ?
Cc1cccc(C)c1NC(=S)N1CCCN(Cc2ccc(F)cc2)C1 | 12 | 7 | 0.6 | 5 | 0 | 0 | 5174
CCc1ccccc1OCC(=O)Nc1cccc(S(=O)(=O)NC2=NCCC2)c1 | 9 | 9 | 1.5 | 1 | nt | -25 | 8220
COCCn1c(SCC(=O)NC2CCCC2)nnc1-c1ccco1 | -4 | -4 | 7.4 | 6 | 2 | -5 | 5359
CN(C(=O)Cn1nnc2ccccc2c1=O)C1CCCCC1 | 4 | -4 | 3.1 | 8 | -7 | -21 | 3033
CCN=c1scc(C)n1N=Cc1cc(Br)c(O)c(OC)c1 | 6 | 1 | 2.9 | 16 | nt | nt | nt
COc1ccc(CNC(=O)CCCc2ccccc2)cc1 | 6 | 14 | 3.9 | 6 | -2 | -1 | 2600
O=C(NCc1ccncc1)Nc1cccc([N+](=O)[O-])c1 | 16 | 4 | -1.9 | -7 | 1 | -17 | 6390
Nc1cn(C2OC(CO)C(O)C2O)c(=O)[nH]c1=O (centres undefined) | -4 | 2 | 5.0 | 10 | 5 | -45 | 4263
CCN(CC)C(=O)Cn1cnc2sc(C(=O)Nc3cc(OC)c(OC)c(OC)c3)c(C)c2c1=O | 10 | 19 | 3.9 | 6 | -2 | -18 | 5534
O=C(Nc1cnn(Cc2ccc(F)cc2)c1)c1cc(-c2cccs2)on1 | 4 | 6 | -0.1 | 2 | -8 | -21 | 9650
O=[N+]([O-])c1cccc(-n2nncc2-c2ccccc2)c1 | nt | nt | nt | nt | 5 | -23 | 3874
COCCCNC(=O)Cn1cnc2c(NCc3ccccc3)ncnc21 | -8 | 2 | 1.4 | -1 | nt | -21 | 3955
CCOc1c2ccc(C(=O)NCc3ccc4c(c3)OCO4)cc2nn1C | 3 | 11 | 0.7 | -11 | -3 | -36 | 4257
(list continues)
SMILES | Mtb hypoxia rep | Mtb hypoxia rep growth | Sa RN4220 lethal | Sa ugtP lethal | BJeLR viability | PrP 5UTR inh | Bead autofluor
COc1ccc(Br)cc1S(=O)(=O)n1ccnc1C | nt | nt | -1.1 | 6 | -16 | -11 | 4579
Cc1n[nH]c(C)c1S(=O)(=O)N1CCCC(C(=O)NC2CCCc3ccccc32)C1 (centres undefined) | nt | nt | 1.4 | 0 | 13 | -10 | 5792
CCC(NC(=S)NCc1ccccc1)C(=O)O (centres undefined) | 5 | 7 | 2.1 | 1 | 2 | 9 | 4491
C=CCn1c(SCC(=O)Nc2ccccc2)nnc1-c1cccc(S(=O)(=O)N2CCOCC2)c1 | nt | nt | -1.4 | 4 | -4 | -17 | 2649
O=C(CSc1ccc2nnc(-c3ccccn3)n2n1)Nc1ccc(F)cc1F | -1 | -5 | 6.4 | 16 | 6 | -8 | nt
Cn1c(SCC(=O)Nc2cccnc2)nnc1-c1ccccc1F | 5 | -9 | 3.8 | 12 | 5 | -14 | 3956
O=C(CN1CC(=O)Oc2ccccc21)OCC(=O)c1ccc(F)cc1 | 0 | 6 | -1.8 | -1 | -1 | -69 | 3813
CCC(C)Cn1c(C(C)C)nc2ccccc21 (centres undefined) | 1 | 7 | 5.6 | 5 | -8 | -18 | 4386
Cc1ccc(-c2nnc(SCC(=O)N/N=C/c3ccccc3C(=O)O)n2C2CCCCC2)cc1 | nt | nt | nt | nt | -1 | -22 | 4581
Cc1ccc(-c2cc(-c3ccccc3O)nc(NN=Cc3cccnc3)n2)cc1 | 1 | 2 | 1.8 | -2 | nt | nt | nt
CCOC(=O)c1cn[nH]c1NC(=S)Nc1ccc(OC)cc1 | 2 | 13 | 2.6 | 2 | -8 | -9 | 3838
O=[N+]([O-])c1cccc(-c2noc(COc3ccccc3)n2)c1 | 4 | 0 | 10 | 1 | nt | -24 | 4711
O=C(CN1C2CCCC1CC(NC(=O)C1CCCCC1)C2)Nc1ccccc1C(F)(F)F (centres undefined) | 13 | 7 | 1.5 | -2 | 6 | -28 | 3626
COc1ccc(N(C(=O)c2ccco2)C(C(=O)NC2CCCC2)c2ccccc2)cc1 (centres undefined) | 4 | -13 | -4.2 | 11 | 7 | -28 | 3885
CN1CCN(C(CNS(=O)(=O)c2cccs2)c2cccnc2)CC1 (centres undefined) | 13 | 11 | -14 | -6 | 7 | -19 | 4722
CN1CCN(/N=C/c2ccc(N(C)c3ccccc3)cc2)CC1 | nt | nt | nt | nt | -10 | -5 | 4305
O=C(CSc1nnc(NC(=O)c2ccc(F)cc2)s1)NCc1ccco1 | 5 | -5 | -4.4 | 1 | 4 | -12 | ?

Shown tab-delimited: part of the list above
Molecule	Mtb hypoxia rep	Mtb hypoxia rep growth	Sa RN4220 lethal	Sa ugtP lethal	BJeLR viability	PrP 5UTR inh	Bead autofluor
O=C(CN1C2CCCC1CC(NC(=O)C1CCCCC1)C2)Nc1ccccc1C(F)(F)F (centres undefined)	13	7	1.5	-2	6	-28	3626
COc1ccc(N(C(=O)c2ccco2)C(C(=O)NC2CCCC2)c2ccccc2)cc1 (centres undefined)	4	-13	-4.2	11	7	-28	3885
CN1CCN(C(CNS(=O)(=O)c2cccs2)c2cccnc2)CC1 (centres undefined)	13	11	-14	-6	7	-19	4722
CN1CCN(/N=C/c2ccc(N(C)c3ccccc3)cc2)CC1	nt	nt	nt	nt	-10	-5	4305
O=C(CSc1nnc(NC(=O)c2ccc(F)cc2)s1)NCc1ccco1	5	-5	-4.4	1	4	-12	?

Assay outcomes: PubChem BioAssay, several laboratories
